From PubChem
Mtb hypoxia inh – reduces hypoxia-regulated biosensor signal in M. tuberculosis | fluorescence inhibition, % (test concentration not listed) | M. tuberculosis hypoxia-regulated fluorescent reporter, fluorescence | hit rate 0.1% among 300,000;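 active means 35 to 45% if threefold the growth effect, above 45% if 1.5-fold the growth effect; inactive means the rest, general growth blockers included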;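 further: wells of about 50 µL received 100 nL stock; 0% = vehicle wells and 100% = reference inhibitor wells; whole bacteria with a GFP reporter of the hypoxia response; strong numbers were not always called active; many hits fall short of the cut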
ugtP null kill – growth inhibition of S. aureus ugtP deletion strain; S. aureus RN4220 ugtP deletion, OD600 growth, 16 h; some inactives read as strong as hits; growth inhibition, % (no concentration beside the values); hit rate 0.54% among 330,000; AID 1259309;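 active means z-score under -3 and OD600 up to 0.15 on both plates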;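 further: plate controls were untreated wells for no effect and antibiotic for full effect; wells of about 80 µL received 100 nL stock; the first replicate is given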
BJeLR viability – BJeLR cell viability loss; BJeLR (HRASV12) viability, CellTiter-Glo ATP luminescence, 48 h; reference of the scale not given here; inhibition, % (test concentration not listed); hit rate 0.17% among 300,000;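 active means replicate mean above 50%; inconclusive means above 50% but judged a plate artefact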;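 further: 50 nL library stock added to about 25 µL; numbers are from one replicate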
Autofluor counter – compound fluorescence in toxin protease inhibitor counterscreen; AID 624483; compound autofluorescence counterscreen, microsphere flow cytometry; active compounds read high; hit rate 3.1% among 360,000; fluorescence intensity (no concentration beside the values);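 active means at least 3 SD above the mean of all compounds, about 16000 in these data; inconclusive means too few beads counted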;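 further: 100 nL of 1 mM stock went into each well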
RN4220 kill – kills Staphylococcus aureus RN4220. S. aureus RN4220 growth, OD600, 16 h. AID 1259311. hit rate 0.33% among 330,000. inhibition, % (concentration not given with the values);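 active means z-score of -3 or lower and OD600 up to 0.18 on both plates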;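 further: plate controls were untreated cells for no effect and reference antibiotic for full effect; stock transfer was 100 nL into about 80 µL; one replicate is shown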
PrP UTR inh – suppresses PrP 5' UTR mRNA reporter expression; cell-based PrP 5' UTR mRNA reporter, plate reader; inhibition, % (test concentration not listed); hit rate 0.35% among 340,000;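 active means every replicate at 50% or more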;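 further: 0 = median of the neutral control wells; tested in H4 reporter cells; numbers are from one replicate; inactives centre near -14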
Mtb hypoxia inh growth – also measured in Mtb hypoxia inh; calls as there; growth inhibition, %; measured here: M. tuberculosis growth (absorbance);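 0% = vehicle and 100% = reference antibiotic; read after six days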
* marks the source's active call; other numbers are inactive results; ? = inconclusive; / = not tested or not shown.

SMILES	Mtb hypoxia inh	Mtb hypoxia inh growth	ugtP null kill	BJeLR viability	Autofluor counter	RN4220 kill	PrP UTR inh
O=C(CCC(=O)N1CCN(c2ccc(F)cc2)CC1)c1ccc(Cl)cc1	4	1	0	-2	6021	3.3	-19
O=C1Nc2ccccc2S/C1=C/NCc1ccccc1Cl	7	3	1	-13	2470	2.9	12
O=C(c1ccccc1)C1CN(c2ccccc2)CC1c1ccc(Cl)cc1 (stereo not drawn)	/	/	/	-4	2416	/	-3
COc1ccc(C(=O)/C=C/c2cn(CC(O)CN3CCN(C)CC3)c3ccccc23)cc1OC (stereo not drawn)	1	4	6	-6	4249	0.0	-11
Cc1ccc(NC(=S)N=C(N)Nc2nc(C)c3cc(C)ccc3n2)c(C)c1	11	0	-7	/	/	4.0	/
COc1ccc(C2CC(c3ccccc3)=NN2C(=O)COC(=O)COc2ccccc2)cc1 (stereo not drawn)	3	11	5	7	4619	3.1	19
Cc1cnc2cc([N+](=O)[O-])ccc2n1	-17	0	3	11	2230	3.0	-14
Cc1ccc(S(=O)(=O)/N=C/c2ccc(N(C)C)cc2)cc1	/	/	/	-11	6394	/	6
COc1ccc(-c2cc(=O)oc3cc(OC(C)C(=O)NCc4ccccn4)ccc23)cc1 (stereo not drawn)	/	/	0	7	4101	3.3	-11
CC(C)CC(NC(N)=O)C(=O)OCC(=O)Nc1ccc(OC(F)F)cc1 (stereo not drawn)	13	19	4	-18	4196	4.7	-22
CCOc1ccc2nc(SCC(=O)N(CC(C)C)c3c(N)n(CC(C)C)c(=O)[nH]c3=O)[nH]c2c1	-5	-5	6	/	3017	3.5	-11
CCOc1ccc(CCNC(=O)C2CC(=O)N(Cc3ccc(OC)cc3)C2)cc1OCC (stereo not drawn)	3	1	11	2	5507	3.7	-15
COC(=O)c1c(NC(=O)COC(=O)c2ccc(NC(=O)CC#N)cc2)sc2c1CCCCC2	-1	0	0	-12	4575	5.5	-27
Cc1ccc(/C(N)=N/OC(=O)Cc2ccccc2)cc1	2	1	21	-17	2443	-0.9	-45
Cc1ccccc1N1CCN(S(=O)(=O)Cc2ccccc2)CC1	6	9	5	0	6751	2.9	3
Cc1nn(-c2ccccc2)c(C)c1NC(=O)CCl	21	12	12	-6	2023	1.9	-18
COc1ccc(OCC(=O)NC2CCCCCCC2)cc1	-3	4	0	0	3406	5.7	-16
COc1ccc(Cc2nnc(SCC(=O)Nc3ccc(N4CCOCC4)cc3)n2C)cc1	2	-5	4	2	4029	-0.1	-18
Cc1nc(NC(=O)CSc2nc3cccnc3n2Cc2ccccc2)sc1C	/	/	-5	6	4343	4.7	-6
NS(=O)(=O)c1ccc(CCNC(=O)COC(=O)CCN2C(=O)C3CC=CCC3C2=O)cc1 (stereo not drawn)	-5	-4	3	/	2790	2.3	-17
Cc1ccccc1NC(=O)CSc1nnc(-c2ccoc2C)n1CCc1ccccc1	-4	1	-4	4	4791	6.9	0
CCC(=O)c1coc2ccc(O)cc12	/	/	3	9	2427	3.4	-11
CCc1ccc(NC2CC(=O)N(CCc3ccc(OC)c(OC)c3)C2=O)cc1 (stereo not drawn)	9	15	5	-5	4123	11	-36
O=C(C1COc2ccccc2O1)N1CCN(Cc2ccccc2)CC1 (stereo not drawn)	-3	4	2	-13	4257	5.3	-8
CC(C)(C)n1nnnc1C(c1cccnc1)N1CCN(c2ccccc2)CC1 (stereo not drawn)	12	6	2	-9	3065	7.0	-6
O=C(CCN1C(=O)C2CCCCC2C1=O)N1CCN(S(=O)(=O)c2ccccc2)CC1 (stereo not drawn)	7	-2	4	28	5211	7.4	-10
Cc1ccc(NC(=O)COC(=O)Cn2cnc3ccccc32)cc1S(=O)(=O)N(C)C	11	2	6	-16	2074	6.8	-2
COc1ccc(CCNS(=O)(=O)c2ccc3c(c2)CCN3C(=O)C2CC2)cc1OC	/	/	4	-2	3424	0.7	-7
O=C(Nc1nc(-c2ccc(Cl)s2)cs1)c1ccncc1	-5	-1	-1	16	5962	0.3	-15
Cc1ccc(S(=O)(=O)N2CCN(CC(=O)N/N=C/C=C/c3ccccc3)CC2)cc1	/	/	/	1	2100	/	-12
Cc1ccc(C(=O)C2=C(O)C(=O)N(Cc3ccccc3)C2c2cccnc2)o1 (stereo not drawn)	7	3	2	7	10834	5.6	-13
CCCCCC(=O)NNC(=S)NC(=O)c1cccc([N+](=O)[O-])c1	6	-1	4	-4	2059	31	-5
Cc1c(C(=O)N(C)CCC#N)oc2ccc(S(=O)(=O)N3CCOCC3)cc12	13	-2	-3	-5	5571	0.7	-20
COC(=O)c1ccc(Nc2nc(C)cc(=O)[nH]2)cc1	/	/	3	-18	3943	1.5	-10
Cc1ccc(C)c(NC(=O)C2CCCN(S(=O)(=O)c3c(C)nn(C)c3C)C2)c1 (stereo not drawn)	0	4	-1	0	6393	1.3	-2
CCCCn1c(N)c(N(CC(C)C)C(=O)C2CCN(C(=O)c3ccc(F)cc3)CC2)c(=O)[nH]c1=O	4	-4	7	-6	5811	1.5	-30
Cc1cccc(OCc2nnc(SCC(=O)Nc3ncc(C)s3)o2)c1	2	3	6	-21	4236	2.7	-15
O=C(Cc1ccc(S(=O)(=O)N2CCCCC2)s1)Nc1ccc(F)cc1F	2	9	-2	4	9782	0.9	-21
Cc1ccc(-n2c(C)cc(C=NNC(=O)c3ccncc3)c2C)c(C)c1	/	/	9	/	/	-3.5	/
CC(=O)N(C(C)=O)c1nc(-c2ccccc2)cn1N=Cc1cccc([N+](=O)[O-])c1	9	3	3	/	/	3.0	/
CC(C)c1cccc(-c2ccc3c(c2)S(=O)(=O)c2cccc(C(=O)NCc4ccco4)c2C3=O)c1	6	8	-7	/	3997	11	-3
Cc1ccc(C)c(NC(=O)CN(C)C(C)C(=O)N2CC(C)CC(C)C2)c1 (stereo not drawn)	-4	2	-6	/	6133	-3.0	-13
CCCCCCOC(=O)C[N+](C)(C)CCOC1CC2CCC1(C)C2(C)C (stereo not drawn)	-7	-8	34	-6	/	6.0	-13
CCCC(=C1c2ccccc2C(=O)N1c1ccccc1)c1ccc(OC2CCCCO2)cc1 (stereo not drawn)	9	-2	3	/	/	2.1	/
O=S(=O)(Nc1ccc(S(=O)(=O)Nc2nccs2)cc1)c1ccc(Br)cc1	1	4	0	-10	5904	14	-5
COC(=O)/C(=C/Nc1ccccc1)[N+](=O)[O-]	3	4	3	14	7956	1.5	-7
CCOc1ccc2oc(C(=O)OC(C(=O)NC(N)=O)C(C)C)c(C)c2c1 (stereo not drawn)	1	1	8	2	3730	-1.3	-8
O=C(CCCOc1ccccc1)NCCc1ccccc1	1	-8	-2	5	4114	-6.1	-15

Reprinted from the part before: five compounds, followed by the next part.
SMILES	Mtb hypoxia inh	Mtb hypoxia inh growth	ugtP null kill	BJeLR viability	Autofluor counter	RN4220 kill	PrP UTR inh
CCCC(=C1c2ccccc2C(=O)N1c1ccccc1)c1ccc(OC2CCCCO2)cc1 (stereo not drawn)	9	-2	3	/	/	2.1	/
O=S(=O)(Nc1ccc(S(=O)(=O)Nc2nccs2)cc1)c1ccc(Br)cc1	1	4	0	-10	5904	14	-5
COC(=O)/C(=C/Nc1ccccc1)[N+](=O)[O-]	3	4	3	14	7956	1.5	-7
CCOc1ccc2oc(C(=O)OC(C(=O)NC(N)=O)C(C)C)c(C)c2c1 (stereo not drawn)	1	1	8	2	3730	-1.3	-8
O=C(CCCOc1ccccc1)NCCc1ccccc1	1	-8	-2	5	4114	-6.1	-15
CCCC(=O)Nc1ccc(NC(=O)c2ccco2)c(OC)c1	1	11	-3	-3	11080	-0.7	-35
COc1ccc(N2CC(C(=O)N3CCC4(CC3)CC(=O)c3ccccc3O4)CC2=O)cc1 (stereo not drawn)	-6	3	0	-1	6062	3.1	-11
Cc1ccc(S(=O)(=O)NCCn2cnc([N+](=O)[O-])n2)cc1	2	-2	19	-3	2910	-0.5	-19
Cc1ccc(NC(=O)C(=O)NNC(=O)c2ccccc2C)cc1Cl	-3	1	-13	-16	3502	-0.9	-22
CCc1ccc(NC(=O)CCn2c(=O)c3cccn3c3ccccc32)cc1	-5	6	-5	-11	7893	-7.4	-9
CCOc1ccc(CCNC(=O)c2nnn(CC(=O)Nc3ccccc3C)c2N)cc1OCC	-13	-5	-3	-10	5757	-0.1	-3
Cc1ccc(S(=O)(=O)N2CCOCC2)cc1C(=O)OCC(=O)NC1CCS(=O)(=O)C1 (stereo not drawn)	2	7	3	-7	2006	4.8	-20
C=CCOc1ccccc1CN1CCC(Oc2cc(C(=O)NC3CC3)ccc2OC)CC1	1	7	1	-2	5943	2.9	-13
N#CC(C(=O)c1ccco1)c1ccccn1 (stereo not drawn)	2	3	9	2	5196	4.4	-26
COc1cc(/C=N/NC(=O)c2ccc(Cl)c(S(N)(=O)=O)c2)ccc1OCC(N)=O	/	/	/	22	3693	/	0
CCOc1ccc(NC(=O)N2CCC(c3nc4ccccc4[nH]3)CC2)cc1	2	1	5	9	5412	1.4	-3
CCN(CC(=O)NCc1ccc(Cl)cc1)C(=O)c1ccc(S(=O)(=O)NCc2ccco2)cc1	9	-1	-1	1	6069	1.2	-10
Nc1c(Cl)cc(Cl)cc1C(=O)OCC(=O)N1CCCC1	24	26	3	7	10750	3.1	-42
Cc1nc2ccccn2c1C(O)=C1C(=O)C(=O)N(CCN2CCOCC2)C1c1ccncc1 (stereo not drawn)	6	0	0	/	/	9.0	/
CN1CCOc2ccc(S(=O)(=O)NCCc3ccc(Cl)cc3)cc21	4	-4	1	-3	4646	-1.4	-7
O=C(COC(=O)c1ccncc1)Nc1ccc2c(c1)OCO2	13	7	-2	/	4007	0.1	-32
O=C(O)C1CCCCC1C(=O)Nc1ccc(Cl)cc1Cl (stereo not drawn)	16	5	3	1	6001	2.5	-10
COc1ccc(N(CC(=O)N/N=C/c2ccccc2F)S(=O)(=O)c2ccccc2)cc1	/	/	/	-4	3473	/	2
COC(=O)c1ccc(S(N)(=O)=O)o1	16	4	7	3	1947	4.2	-16
CC(Sc1nnc(Cc2cccs2)n1C1CC1)C(=O)NC1CCS(=O)(=O)C1 (stereo not drawn)	10	1	6	/	/	3.9	-13
CCCCn1c(N)c(N(CC(C)C)C(=O)C2CC(=O)N(c3ccc(C)cc3)C2)c(=O)[nH]c1=O (stereo not drawn)	3	0	8	-7	6618	1.9	-19
CCOC(=O)NC1(NCc2ccccc2)Oc2ccccc2O1	0	0	-3	7	5492	3.1	-11
C=CCOC(=O)C1=CC(c2csc3ccccc23)C(CCCO)C(OCC)O1 (stereo not drawn)	21	5	18	/	/	36	/
CCOc1ccc(NC(=O)CN(C)C(=O)c2cc(-c3ccc(OC)cc3)nc3ccccc23)cc1OCC	-3	-2	1	4	5355	7.1	-23
CCOC(=O)c1cc(-c2cc3ccccc3o2)nc2c1c(=O)[nH]c(=O)n2CCOC	/	/	1	-3	4825	-0.8	-16
CCc1ccc(OC(=O)/C=C/c2ccco2)cc1	2	3	12	-3	3538	12	-67
O=[N+]([O-])c1cc(S(=O)(=O)N2CCCC2)ccc1NCCc1ccccc1	7	2	0	2	2087	2.6	-20
Oc1ccc(C=NNc2nncc(-c3ccccc3)n2)cc1	4	-7	2	/	/	2.5	/
CCCNC(=O)Cn1cnc2sc(C(=O)NCCN(CC)CC)c(C)c2c1=O	/	/	3	-10	4834	3.1	-19
CN1C(=O)C(O)(CC(=O)C=Cc2ccco2)c2cc(Br)ccc21 (stereo not drawn)	8	14	0	/	/	6.8	/
NC(=O)c1ccccc1OCC(=O)NS(=O)(=O)c1ccc(Cl)cc1	8	9	-6	-3	10094	7.9	-46
COCCN(C(=O)Cc1csc(-c2cccc(Cl)c2)n1)c1c(N)n(Cc2ccccc2)c(=O)[nH]c1=O	2	9	3	/	?	3.1	-15
COc1cc(C(=O)NCCOC(=O)c2cccc(N(C)C)c2)cc(OC)c1OC	16	3	-3	-4	3953	0.5	-15
CCCCn1c(-c2csc(C(C)C)c2)n[nH]c1=S	2	0	-1	1	1987	4.1	-19
COc1ncnc2sc3c(c12)CCCC3	4	1	0	15	23554*	3.4	2
